# High-throughput results from PubChem BioAssay.
# VDR inhibitor = vitamin D3 receptor (human) inhibition; AID 504847; P11473; Potency, µM, for inactives: max response, negative = inhibition, actives largely listed as inhibitors; VDR-SRC2-3 peptide fluorescence polarization, 2 h; 400,000 tested, 0.93% active; active = well fitted inhibition curve with a large enough effect; inconclusive = small, poorly fitted or top-dose-only effect, or another doubt; inactive = no such curve, though single readings can be large or run the other way; also: series mostly up to about 120 µM
# Target sequence (P11473 whole entry, looked up): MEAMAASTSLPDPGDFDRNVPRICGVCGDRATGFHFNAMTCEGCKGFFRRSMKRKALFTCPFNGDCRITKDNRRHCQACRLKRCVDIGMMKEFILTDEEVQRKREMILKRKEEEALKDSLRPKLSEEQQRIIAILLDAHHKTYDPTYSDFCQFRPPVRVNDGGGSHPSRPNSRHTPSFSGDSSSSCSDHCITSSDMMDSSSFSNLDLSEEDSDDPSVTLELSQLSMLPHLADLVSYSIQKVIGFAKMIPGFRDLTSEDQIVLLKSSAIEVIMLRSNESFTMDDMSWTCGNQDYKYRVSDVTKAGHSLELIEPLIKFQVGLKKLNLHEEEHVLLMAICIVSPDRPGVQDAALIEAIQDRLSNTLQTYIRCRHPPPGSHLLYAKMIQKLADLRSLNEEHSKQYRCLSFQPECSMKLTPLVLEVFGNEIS
#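 After 23 nl compound addition and a short centrifugation, plates sat for 2 hours at ambient temperature; polarization of fluorescence then indicated loss of VDR binding to peptide SRC2-3.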
# The depositor's hits bear a star; u = inconclusive; & = joins results of further samples. % is scaled to controls: 0 for no effect and ±100 for the full control effect; potency is read from the fitted curve at half-maximal effect. A portion of the library. The share of hits here may be higher or lower than overall.
SMILES,VDR inhibitor
COc1cc(C(=O)Nc2ccc3nc4n(c(=O)c3c2)CCCC4)ccc1Br,1%
CCCN(CCC)CCNS(=O)(=O)c1ccc2c(c1)CCN2C(=O)C1CCC1,-23%
CSc1nc2nc3c(cc2c(=O)n1-c1ccccc1C)COC(C)(C)C3,-3%
COc1ccc(-c2ccc3c(c2)S(=O)(=O)c2cccc(C(=O)O)c2C3=O)cc1OC,6%
C[C@]12c3[nH]c4ccccc4c3CCN1C(=O)C(CC(=O)NCCc1ccccn1)C[C@@H]2C(=O)N1CCCCC1 (stereo partly drawn),-2%
CC(C)CC(=O)NCc1ccc(F)cc1,-2%
COc1ccc(OC)c(-c2csc(N(CC3CCCO3)C(=O)Cc3ccccc3)n2)c1 (stereo not drawn),-13%
Cc1ccc(CSC2=NCCN2C(=O)C(C)Oc2ccccc2)cc1 (stereo not drawn),15%
O=C(Nc1ccc(O)c2c(=O)cc(-c3ccccc3Cl)oc12)c1ccc(Cl)c(Cl)c1,-4%&-14%
CCOC(=O)/C(C#N)=C/Nc1cc(C(=O)OCC)cc2c(OC)c(OC)ccc12,17%
CN(C)c1ccc(NC(=O)CN2CCC(N3CCCCC3)CC2)cc1,17%
CCOc1cc(CN2CCCC(CNC(=O)c3ccc(F)cc3)C2)ccc1OC (stereo not drawn),0%
CSc1ccccc1C(=O)N1CCOCC1,4%
CCOc1cc(C(=O)NCC(=O)N2CCC3(CC2)NCCc2[nH]cnc23)cc(OCC)c1OCC,-26%
COc1ccc(S(=O)(=O)N2CCC(C(=O)N3CCOCC3)CC2)cc1,4%
CCN(CC)CCC(c1ccc(N(C)C)cc1)c1c(O)cc(OC)cc1OC (stereo not drawn),1%&3%
Cc1cc(-c2[nH]nc3c2C(c2cccc(O)c2)C(C#N)=C(N)O3)c(C)s1 (stereo not drawn),-7%
Cc1sc2ncnc(N(C)C3CCCCC3)c2c1C,-11%
COc1cccc(N2CCN(C(=O)c3ccc4c(Cl)c5c(nc4c3)CCCC5)CC2)c1,-9%
CN(c1ccc(C(=O)Nc2cccnc2)cc1)S(=O)(=O)c1ccccc1,-10%
CC(=O)N1CCc2c(sc3c2c(=O)n(CCc2ccccc2)c(=O)n3Cc2ccc(F)cc2)C1,-17%
COc1ccc(CCN2CC(C(=O)NCCc3ccc(F)cc3)CCC2=O)cc1 (stereo not drawn),-9%
CC(C)CC(=O)NC(=S)NNC(=O)c1ccc(NC(=O)C2CCCCC2)cc1,-7%
COc1ccc(NC(=O)Cn2nnc(C(=O)NCCc3ccccc3)c2N)cc1,-22%&-13%
CC1CCC2(CC1)NC(=O)N(CC(=O)NCc1cccs1)C2=O (stereo not drawn),8%
# (cont.)
SMILES,VDR inhibitor
Fc1ccc2cc(-c3ccccc3)ncc2c1,-14%
CCOC(=O)C1=C(C)NC(C)=C(C(=O)OCC)C1c1cc2ccc(C)cc2[nH]c1=O,-18%
COc1ccccc1OCC(O)CN1CCOCC1 (stereo not drawn),-15%
CCc1ccc(/C=C/C(=O)c2ccc(N3CCOCC3)cc2)cc1,-11%
COc1cc(-c2nc(-c3ccccc3)c(-c3cccs3)[nH]2)cc(OC)c1O,8%
Cc1cccc(NC(=O)C(NS(=O)(=O)c2ccc3c(c2)CCC(=O)N3)c2ccccc2)n1 (stereo not drawn),-7%
CN1CCN(C(c2cccc(C(F)(F)F)c2)c2nnnn2Cc2ccccc2)CC1 (stereo not drawn),10%
CCN1CCN(CC(=O)Nc2cc3c(cc2C(C)=O)OCO3)CC1,-11%
COc1ccc(CNC2CCCC2)c(OC)c1OC,-1%
CCCCCCn1nc(C(=O)N(CCCC)c2c(N)n(CCC)c(=O)[nH]c2=O)c2ccccc2c1=O,-4%
COc1ccc(CNC(=O)N2CCN(S(=O)(=O)c3ccccc3)CC2)cc1,20%
Cc1cc([N+](=O)[O-])nn1CC(=O)NCCCN1CCOCC1,23%
COCC(=O)NCCSc1c(C)[nH]c2ccccc12,-1%
CCCCn1c(N)c(N(CCOC)C(=O)C2CC(=O)N(c3ccc(CC)cc3)C2)c(=O)[nH]c1=O (stereo not drawn),-13%
O=C(Cn1c(-c2cccs2)cc2cc(Cl)ccc21)N1CCN(c2ccccc2)CC1,12%
Cn1c(N)c(C(=O)c2ccc(C#N)cc2)c(=O)n(C)c1=O,-1%
Cc1oc(-c2ccccc2)nc1CSc1nnc(C)n2c1cc1sccc12,2%
CC(=O)Nc1ccc(S(=O)(=O)NCC(=O)OCC(=O)c2cc(C)n(-c3ccc4c(c3)OCO4)c2C)cc1,-15%
Cc1cccc(/C=C2\Oc3cc(OS(C)(=O)=O)ccc3C2=O)c1,0%
COC(=O)C1=C(C)N(C)C(=S)NC1c1ccc(OC)cc1OC (stereo not drawn),-8%
Cc1c(NC(=O)CSc2ccccc2C(=O)Nc2cccnc2)c(=O)n(-c2ccccc2)n1C,19%
Cc1nn(-c2ccc(N3CCOCC3)nn2)c(C)c1CCC(=O)NCc1ccc(OC(C)C)cc1,4%
O=C(NCCc1cn2ccccc2n1)c1cc(COc2c(F)cccc2F)on1,-12%
O=C(NCC(c1ccco1)N1CCc2ccccc21)C(=O)Nc1ccc(F)cc1F (stereo not drawn),-18%
CC(C)(C)c1ccc(/C=C/C(=O)Nc2ccc(S(N)(=O)=O)cc2)cc1,1%
# Next section:
SMILES,VDR inhibitor
O=C(Nc1cccc2nsnc12)c1cccnc1Cl,0%
C=C[C@](C)(O)CCC1C(=C)CC(OC(C)=O)C2C(C)(C)CCCC12C (stereo partly drawn),-9%
Cc1ccc(S(=O)(=O)c2c(N)n(C)c3nc4ccccc4nc23)cc1,16%
CCOc1ccc(NC(=O)COC(=O)c2ccc3ncsc3c2)cc1OCC,-8%
O=C(CN1CCc2ccccc2C1)Nc1ccc(OC(F)(F)F)cc1,-21%
Brc1ccccc1OCCCCN1CCCCC1,8%
CCCC(C)c1nnc(NC(=O)C2CCCO2)s1 (stereo not drawn),-17%
O=S(=O)(NCCc1ccccc1)c1cnc(Cl)c(Br)c1,-3%
Cc1ccc(SCC(c2ccccc2)N2CCN(CC(C)C)CCC2=O)cc1 (stereo not drawn),-4%
COc1ccc(/C=C/CN2CCN(CC(C)C)C(CCO)C2)cc1 (stereo not drawn),-27%
O=S(=O)(c1ccc(Cl)cc1)N1CCN(CCc2ccncc2)CC1,-4%
O=S(=O)(c1ccc(SCCOc2ccc(Cl)cc2)nc1)N1CCCC1,u
O=C(O)CCCC(=O)N1N=C(c2ccccc2)CC1c1cccs1 (stereo not drawn),8%
CC(CCc1ccccc1)NC(=O)Cn1cccc1C(=O)c1ccccc1 (stereo not drawn),-11%
COc1ccc(Cl)cc1NC(=O)COC(=O)CCCC1=NS(=O)(=O)c2ccccc2N1,-5%
COc1ccccc1Nc1ncc2c(n1)CCN(Cc1cc(F)cc(F)c1)C2,12%
CCN(CC)S(=O)(=O)c1cccc(-c2nnc(SCC(=O)NC3CCCCCCC3)n2N)c1,0%
O=C(c1ccc(Cl)cc1)C(Cn1cncn1)C(Sc1ccccc1)c1ccccc1 (stereo not drawn),-11%
CC(C)(C)NC(=O)COC(=O)CCC(=O)c1cccs1,-13%
Cc1oc2ncn(CC(C)C)c(=O)c2c1C(=O)NC(C)c1ccccc1 (stereo not drawn),4%
NC(=O)C1O[C@@H](O)[C@H](O)[C@@H](O)[C@H]1O (stereo partly drawn),5%
CC1CC(=O)c2c(cc3c(-c4c(O)cc(O)c5c(O)c6c(cc45)OC(C)CC6=O)c(O)cc(O)c3c2O)O1 (stereo not drawn),u
CC1CN(C2CCN(C(=O)COc3ccccc3)CC2)CC(C)O1 (stereo not drawn),-8%
CC(=O)c1ccc(NC(=O)c2sc3nc4n(c(=O)c3c2C)CCCCC4)cc1,17%
CCCCC(=O)Nc1ccc(NC(=S)NC(=O)CC)cc1OC,3%
# Continued:
SMILES,VDR inhibitor
CC(C)C(NC(=O)c1ccc2c(c1)OCO2)C(=O)N/N=C\c1ccco1 (stereo not drawn),5%
Cc1ccc(-n2c(=O)cc(N3CC(C)OC(C)C3)[nH]c2=O)cc1 (stereo not drawn),-12%
Cc1ccc(NC(=O)CN(c2ccc(Cl)cc2)S(=O)(=O)c2cc([N+](=O)[O-])ccc2Cl)cc1,-1%
COc1cccc(C2C(C#N)=C(N)OC(C(C)(C)C)=C2C#N)c1 (stereo not drawn),0%
CCOC(=O)c1c(NC(=O)Cc2ccccc2)sc2c1CC(C)(C)NC2(C)C,-1%
CS(=O)(=O)NCCSCc1c(Cl)cccc1Cl,-8%
CCOc1cc(NC(=S)NCC2CCCO2)c(OCC)cc1NC(=O)CC (stereo not drawn),3%
CCCn1c(=NC(=O)c2c(-c3c(F)cccc3Cl)noc2C)c(C(=O)OCC)cc2c(=O)n3ccccc3nc21,-4%
CS(=O)(=O)c1cc([N+](=O)[O-])c(Sc2nc3ccccc3[nH]2)c([N+](=O)[O-])c1,35µM*
CC1CCCN(C(=O)Cn2c(-c3nonc3N)nc3ccccc32)C1 (stereo not drawn),-2%
O=C(CCn1cnc2ccccc2c1=O)Nc1nc(-c2ccc(Br)cc2)cs1,-23%
Cc1cccc(C(=O)NCC(=O)OCC(=O)NC2CCCCCCC2)c1,-6%
Cc1nc2ccccc2c(=O)n1NC(=O)c1ccc(F)cc1Cl,24%
CCOc1ccc(/C=C2\CCc3ccccc3C2=O)cc1,1%
CCc1ccc(NC(=O)CSc2nncn2-c2cccnc2)cc1,-17%
c1ccc2cc(Sc3ncnc4c3oc3ccccc34)ccc2c1,5%
COc1ccccc1-n1ccnc1SCC(=O)NCC1CCCO1 (stereo not drawn),13%
CC[C@H]1OC(=O)[C@H](C)[C@@H](O[C@H]2C[C@@](C)(OC)[C@@H](O)[C@H](C)O2)[C@H](C)[C@@H](O[C@@H]2O[C@H](C)C[C@H](N(C)C)[C@H]2O)[C@](C)(O)C[C@@H](C)C(=NOCOCCOC)[C@H](C)[C@@H](O)[C@]1(C)O,0%
CCCCSc1c(C)c2cc3c(cc2[nH]c1=O)OCO3,-9%
COCCNC(=O)C(=O)NCC(c1cccnc1)N1CCN(c2ccccc2F)CC1 (stereo not drawn),8%
COC(=O)c1cc2occc2n1Cc1nc(-c2ccccc2F)oc1C,1%&-4%
CC(=O)Nc1cccc(NC(=O)Nc2cccc(F)c2)c1,-3%
CCOc1ccc2nc(NC(=S)N(C)C)sc2c1,-23%
COc1ccc(C2CC(c3ccccc3C(F)(F)F)=NN2c2ccc(S(N)(=O)=O)cc2)cc1 (stereo not drawn),-5%
O=C(/C=C/c1ccc2c(c1)OCO2)NCCSCc1ccc(Cl)cc1,-6%
# Additional entries.
SMILES,VDR inhibitor
Cc1cccc(Oc2c([N+](=O)[O-])c(=O)n(C)c3ccccc23)c1,40µM*
CCOC(=O)C(Cc1ccc(O)cc1)NC(C)=O (stereo not drawn),13%
CCN1CCN(S(=O)(=O)c2cccc(S(=O)(=O)N3CCOCC3)c2)CC1,7%
COCCN1C(=O)C(=O)/C(=C(/O)c2ccc(S(=O)(=O)N3CCOCC3)cc2)C1c1ccc(O)c(OC)c1 (stereo not drawn),3%
CN(C)c1ccc(C(=O)c2ccccc2)cc1,-6%
CC(C)c1ccc(CNc2nc3nc4c(c(=O)n3[nH]2)CCC4)cc1,11%
COc1ccccc1CC(NC(C)=O)C(=O)NC1CCN(C(=O)Nc2ccccc2F)CC1 (stereo not drawn),9%
O=[N+]([O-])c1ccc(COc2cccc(CNc3ccc(F)cc3)c2)cc1,-9%
CC(=O)N(C)C(c1ccc(N(C)C)cc1)c1nnnn1-c1c(C)cccc1C (stereo not drawn),-8%
CCOC(=O)C(NCc1ccc2c(c1)OCO2)(NC(=O)CC)C(F)(F)F (stereo not drawn),6%
COc1ccc(C2C(C(=O)Nc3ccc(F)cc3)=C(C)Nc3nc(CCCO)nn32)cc1 (stereo not drawn),-6%
COc1ccc(/C(N)=N/OC(=O)CSc2ccc(C)cc2)cc1OC,-1%
COc1ccc(NC(=S)N2CCN(Cc3ccccc3)CC2)c(OC)c1,1%
